# Screening results (PubChem)
# VDR inh: blocks the human vitamin D receptor. P11473. VDR-SRC2-3 peptide fluorescence polarization, 2 h. Potency, µM, for inactives: max response, negative = inhibition, actives largely listed as inhibitors. hit rate 0.93% among 400,000; active = well fitted inhibition curve with a large enough effect; inconclusive = small, poorly fitted or top-dose-only effect, or another doubt; inactive = no such curve, though single readings can be large or run the other way; note: series mostly up to about 120 µM
# Target sequence (P11473 whole entry, looked up): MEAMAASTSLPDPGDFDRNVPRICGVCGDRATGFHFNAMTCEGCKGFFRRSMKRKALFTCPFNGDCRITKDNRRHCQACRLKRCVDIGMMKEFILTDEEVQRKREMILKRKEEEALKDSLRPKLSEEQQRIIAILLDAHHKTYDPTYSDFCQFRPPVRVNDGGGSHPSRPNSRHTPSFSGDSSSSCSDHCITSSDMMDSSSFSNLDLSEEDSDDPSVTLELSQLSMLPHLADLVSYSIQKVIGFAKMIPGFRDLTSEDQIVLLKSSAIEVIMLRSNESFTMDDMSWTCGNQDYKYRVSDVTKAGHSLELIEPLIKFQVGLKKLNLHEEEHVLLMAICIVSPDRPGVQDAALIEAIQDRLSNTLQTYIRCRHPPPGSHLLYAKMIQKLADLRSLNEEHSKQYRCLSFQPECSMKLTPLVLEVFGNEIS
#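 After 23 nl compound addition and a short centrifugation, plates sat for 2 hours at ambient temperature; polarization of fluorescence then indicated loss of VDR binding to peptide SRC2-3.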
# Numbers without * were called inactive; ? = inconclusive; [ ] = another dose, or the depositor's remark. % is set by controls: 0 for no effect and ±100 for the full control effect; potency is the fitted concentration of half-maximal effect.
VDR inh	structure
-4%	C=CCNC(=O)CN1CCC(c2nc3cc(C)c(C)cc3[nH]2)CC1
3%	CC(=O)c1c(C)nc2ccc(C)cc2c1-c1ccccc1
1%	O=C(Oc1ccc(/C=N/NC(=O)c2ccccc2O)cc1)c1ccccc1
21%	CC(NC(=O)C(=O)N1CCOCC1)C(c1cccs1)N1CCN(c2ccccc2F)CC1 (stereo unspecified)
-3%	CCn1c(CC(C)C)n[nH]c1=S
-11%	CCOC(=O)C1(Cc2ccc(Cl)cc2)CCN(C(=O)c2ccoc2)CC1
-26%	Cc1cccc(NC(=O)c2ccc(NCCc3ccccc3)c([N+](=O)[O-])c2)c1
-5%	CCc1cccc(NC(=O)C2CCCN2S(=O)(=O)c2ccc3c(c2)CC(C)N3C(C)=O)c1 (stereo unspecified)
-4%	Cc1ccc(NC(=O)c2nc[nH]c2C(=O)N[C@H](C)c2ccccc2)cc1
-10%	NC(=O)c1ccc(-n2nc(C(F)(F)F)c3c2CCCC3)cc1
-9%	NCCS(=O)(=O)NC1CCCCC1
3%	COc1cc(C(=O)NCC(=O)NCC2COc3ccccc3O2)cc(OC)c1OC (stereo unspecified)
-8%	CCCCN1C(=O)C2(OCCCO2)c2cccc(C)c21
19%	CCn1ccc2c(OCC(=O)Nc3ccc(C)c(Cl)c3)cccc2c1=O
4%	COc1ccc(CC(=O)OCC(=O)N2CCc3ccccc32)cc1OC
-15%	COc1ccccc1OCc1nnc(-c2ccccc2)o1
1%	CCOC(=O)c1ccc(NC(=O)CCCN2C(=O)NC3(CCCC3)C2=O)cc1
-4%	O=C(O)c1ccn2c(C(=O)c3ccccc3)c(-c3ccccc3)cc2c1
8%	COc1ccc(NC(=O)c2nc[nH]c2C(=O)NCc2ccccc2)cc1
-5%	O=C(COc1ccc(F)cc1)Nc1ccc(OCc2cc(=O)n3ccsc3n2)cc1
5%	Cc1ccccc1C1c2[nH]c3ccccc3c2CCN1C(=O)c1ccc(=O)n(C)n1 (stereo unspecified)
0%	CS(=O)(=O)N(CC(=O)Nc1c(F)cccc1F)Cc1ccccc1
-9%	CCCCOP(=O)(c1ccc(N(C)C)cc1)C(O)c1cc(OC)c(OC)c(OC)c1 (stereo unspecified)
-2%	CC1CCC(C(C)C)C(OC(=O)C[n+]2cc(-c3ccc(Cl)cc3)n3c2CCC3)C1 (stereo unspecified)

# 2 entries from above, as labelled records:
> O=C(COc1ccc(F)cc1)Nc1ccc(OCc2cc(=O)n3ccsc3n2)cc1
  VDR inh = -5%

> Cc1ccccc1C1c2[nH]c3ccccc3c2CCN1C(=O)c1ccc(=O)n(C)n1 (stereo unspecified)
  VDR inh = 5%

# (further entries)
VDR inh	structure
1%	O=C(c1ccc([N+](=O)[O-])o1)N1CCOCC1
33%[activator]	COc1ccc(NC(=O)/C=C/c2cccc(Br)c2)cn1
-4%	COCC(C)n1c(COc2ccccc2F)nnc1SCc1c(C)noc1C (stereo unspecified)
1%	Cc1ccc(-n2c(=O)c3c(c4cc(C)ccc4n3C)n(CC(=O)Nc3c(C)cccc3C)c2=O)cc1
-20%	CN(C)C(=O)c1cc2cc(Br)ccc2s1
-13%	CC1CC(N(C(=O)c2ccco2)c2ccccc2)c2ccccc2N1 (stereo unspecified)
-16%	CCn1c(CNC(=O)c2ccccc2F)nnc1SCC(=O)Nc1nncs1
-13%	CCCS(=O)(=O)N1CCN(Cc2ccc([N+](=O)[O-])cc2)CC1
-1%	Cc1nn(Cc2ccccc2)c(Cl)c1/C=C/C(=O)OC(C)C(=O)N1CCCC1 (stereo unspecified)
-10%	CC(=O)OCn1ncc(N2CCOCC2)c(Br)c1=O
-10%	CN(C)c1ccc(/C=N/NC(=O)CN(c2cccc(Cl)c2)S(C)(=O)=O)cc1Br
8%	CC(C)c1nc2sc3c(SCC(N)=O)ncnc3c2c2c1CCC2
-18%	O=C(Nc1ccc(N2CCOCC2)cc1)C1CCN(S(=O)(=O)c2ccccc2F)CC1
2%	CCOc1ccc(OCCCCN2CCCC2)cc1
7%	NC(=O)CC(NC(=O)c1ccccc1)c1ccc(N2CCc3ccccc3C2)c([N+](=O)[O-])c1 (stereo unspecified)
9%	OCCC1CN(Cc2cc(F)ccc2F)CCN1CCCc1ccccc1 (stereo unspecified)
4%	COc1ccc(C)cc1NC(=O)C(=O)NCCc1sc(-c2ccc(Cl)cc2)nc1C
-5%	C=CCN1C(c2ccc(Br)cc2)=CS/C1=C(/C#N)c1nnc(N2CCOCC2)n1-c1ccccc1
3%	O=C(NCc1cccs1)C1CCCN1C(=O)Nc1ccc(F)cc1 (stereo unspecified)
-1%	CC(=O)c1ccc(NC(=O)CSc2nccn2Cc2ccc3c(c2)OCO3)cc1
6%	COC(=O)c1c(-c2ccncc2)csc1NC(=O)c1ccoc1C
6%	O=c1[nH][nH]c(=O)c2nc(Nc3ccccc3)ncc12
16%	Cc1cccc(C(=O)Nc2ccc(C(=O)N/N=C/c3ccc(C)o3)cc2)c1
-17%	Cc1[nH]n2cnnc2c(=O)c1Br
4%	Cc1cccc(C)c1OCC(=O)N/N=C/c1ccc2c(c1)OCO2
-5%	O=S(=O)(NC1CCCCC1)c1ccc(Br)s1
12%	C=CCn1c(COc2ccccc2)nnc1SCC(=O)Nc1ccc2c(c1)OCCO2
7%	Cc1cn(C2CCCCC2)c(=O)n(-c2ccccc2)c1=O
4%	Cc1cccc(N2CCN(C(=O)CN3CCSc4ccccc43)CC2C)c1 (stereo unspecified)
13%	O=C(NCCCn1cccn1)c1cc(COc2ccc(F)cc2Cl)on1
4%	O=c1c(-c2ccccc2)cnc2n1CCS2
-19%	COc1ccc(CN(CCC(c2ccccc2)C2CCOC(C)(C)C2)C(C)=O)cc1 (stereo unspecified)
-1%	O=C1C=C(c2ccc3ncccc3c2)C[C@@H](c2ccc(Cl)cc2)C1
-2%	CC1C(=O)N(C)C(=O)c2nc[nH]c21 (stereo unspecified)
-13%	CCC(=O)N1CCc2cc(S(=O)(=O)NC(CC(C)C)C(=O)NCCc3cccc(C)c3)ccc21 (stereo unspecified)
11%	O=C(CSc1nccn1Cc1ccccc1)NCc1ccc(F)cc1

# Entries listed so far that have two or more sulfur atoms (3):
VDR inh	structure
-16%	CCn1c(CNC(=O)c2ccccc2F)nnc1SCC(=O)Nc1nncs1
8%	CC(C)c1nc2sc3c(SCC(N)=O)ncnc3c2c2c1CCC2
-5%	O=S(=O)(NC1CCCCC1)c1ccc(Br)s1

# 6 entries out of the list above, ordered by the value under VDR inh, highest first.
molecule | VDR inh
O=C(NCCCn1cccn1)c1cc(COc2ccc(F)cc2Cl)on1 | 13%
C=CCn1c(COc2ccccc2)nnc1SCC(=O)Nc1ccc2c(c1)OCCO2 | 12%
Cc1cccc(N2CCN(C(=O)CN3CCSc4ccccc43)CC2C)c1 (stereo unspecified) | 4%
O=C1C=C(c2ccc3ncccc3c2)C[C@@H](c2ccc(Cl)cc2)C1 | -1%
CC1C(=O)N(C)C(=O)c2nc[nH]c21 (stereo unspecified) | -2%
COc1ccc(CN(CCC(c2ccccc2)C2CCOC(C)(C)C2)C(C)=O)cc1 (stereo unspecified) | -19%

# Following part.
VDR inh	structure
-8%	Cc1nn(-c2ccc([N+](=O)[O-])cc2)c2c1C(c1cccc(Br)c1)N1C(=N2)C(=O)Nc2ccccc21 (stereo unspecified)
-4%	Cc1cccc(NC(=O)C2CCN(S(=O)(=O)c3c(C)noc3/C=C/c3ccco3)CC2)c1
1%	CCOC(=O)C1CSC2(CCC(c3ccccc3)CC2)N1 (stereo unspecified)
-25%	Fc1ccccc1N=C1NN=C(c2ccccc2)CS1
-14%	O=C(O)CCCC(=O)Nc1ccc(Oc2ncnc3cc(Cl)ccc23)nc1
1%	COc1ccc(NC(=O)c2c(-c3ccc(C)cc3)nnc3ccccc23)cc1OC
4%	CCOc1ccc(S(=O)(=O)c2c[nH]c3ccc(C)cc3c2=O)cc1
-4%	CCNC(=S)NNc1ccccc1
20%	CC(NC(=O)c1ccco1)c1nc(-c2ccc(Cl)cc2)no1 (stereo unspecified)
-6%	Cc1ccccc1NC(=O)CN1CCN(Cc2ccccc2)CC1
?	CCOC(=O)c1c(CN(C)C)n(C)c2c(O)c(N=NC(N)=O)c3ccc(Br)cc3c12
-13%	CC1(C)C2CCC1(C)C(OC(=O)CNc1ccccc1)C2 (stereo unspecified)
-3%	Oc1ccc(Cl)cc1-c1cc(-c2ccccc2)n[nH]1
-5%	CC(=O)Oc1ccc2c(=O)oc(-c3ccc([N+](=O)[O-])cc3)nc2c1
-20%	NS(=O)(=O)c1ccc(NC(=S)N2CCC(O)CC2)cc1
-13%	CCC(=O)Nc1nc2ccccc2n1CCN(CC)CC
-16%	Cc1ccc(S(=O)(=O)N2CCOCC2)cc1NC(=O)COC(=O)/C=C/c1ccco1
9%	CCOc1ccc(NC(=O)CN(C)C(=O)CC2CCCC2)cc1OCC
-6%	COC(=O)c1cn(CC(=O)NCc2ccco2)c2ccccc12
7%	Cn1c(=O)c(C(=O)Nc2ncccc2O)c(O)c2ccccc21
0%	CCOc1cc(N2CCOCC2)c(OCC)cc1NC(=O)COC(=O)c1ccccc1OC(F)F
-14%	CCOC(=O)Nc1cc(C(=O)OCC)c(C)nc1C
0%	COC(=O)c1cc2ccccc2c(=O)s1
1%	COc1cc(Cl)cc(C=O)c1OCC(=O)O
-14%	CN(C)CCCN(C(=O)c1cc2ccccc2oc1=O)c1nc2c(F)cccc2s1
-2%	O=C(c1ccccc1C(=O)N1CCN(c2ccc(F)cc2)CC1)N1CCN(c2ccc(F)cc2)CC1
-2%	COc1ccccc1C(=O)NCCC(=O)OCC(=O)Nc1ccc(S(N)(=O)=O)cc1
-3%	C#CCNC(=O)c1ccc(OCc2ccccc2)cc1Cl
21%	COc1ccc(/C=N\NC(=O)c2ccc([N+](=O)[O-])c(C)c2)cc1COc1ccccc1C(N)=O
1%	Cc1cccc(C)c1NC(=O)Cn1c(=O)n(CCCC(=O)NC2CCN(Cc3ccccc3)CC2)c(=O)c2ccccc21
13%	O=C(CN1C(=O)NC2(CCCC2)C1=O)Nc1ccc(C(F)(F)F)cc1
1%	NS(=O)(=O)c1ccc(Nc2ccccc2)c([N+](=O)[O-])c1
12%	O=C(O)C1C2CCC(O2)C1C(=O)Nc1ccc(Cl)cc1F (stereo unspecified)
2%	CN(C(=O)CSC1=NC2C(N=N1)c1cc(Br)ccc1N2C)C1CCCCC1 (stereo unspecified)
-17%	Cc1ccc(C(=O)c2oc3ccccc3c2NC(=O)COc2ccc(C(C)C)cc2)cc1
4%	Cc1noc(C)c1CCC(=O)N1CCCC(CCC(=O)NCc2ccccc2F)C1 (stereo unspecified)
-7%	COC(=O)[C@@]1(Cc2ccc(F)cc2)[C@H]2c3cc(C(=O)N(C)C)n(Cc4ccccc4)c3C[C@H]2CN1C(=O)c1ccccc1
-10%	Fc1ccccc1Sc1ccccc1CNC1=NCCN1
9%	CC(C)CC(=O)Nc1ccc2oc(-c3ccncc3)nc2c1
18%	N/C(=N\OC(=O)c1ccc(Cl)c(Cl)c1)c1ccccn1
3%	CCOC(=O)CC(NC(=O)c1cc2c(=O)n3cccc(C)c3nc2s1)c1ccc(OCC)c(OC)c1 (stereo unspecified)
14%	CC(C)(C)c1ccc(NC(=O)N2CCCN(c3c(Cl)cncc3Cl)CC2)cc1
-16%	COc1ccc(-c2nnc(C3CCN(C(=O)c4ccccc4F)CC3)o2)cc1
-16%	CC(C(=O)Nc1cc([N+](=O)[O-])ccc1Cl)N1CCN(c2ccccc2)CC1 (stereo unspecified)
1%	Cc1ccc(S(=O)(=O)Nc2ccc(S(=O)(=O)NC(C)(C)C)cc2)cc1
8%	Cc1cccc(NC(=O)C2CCCN(S(=O)(=O)c3ccc4[nH]c(=O)ccc4c3)C2)c1 (stereo unspecified)
16%	CCOC(=O)CSc1ncc(OC)c(=O)[nH]1
-19%	CS(=O)(=O)N(Cc1ccccc1)c1ccc(C(=O)NCc2ccccc2)cc1
7%	Nc1nc2c(ccc3ccccc32)s1
7%	COc1ccc(OC)c(CNC(=O)c2cnc(N(C)C)nc2)c1
18%	COc1ccc(-n2nc(C(=O)N3CCCCC3)c3ccccc3c2=O)cc1
-3%	N#CCCn1cc(C(CC(=O)c2ccccc2)C(=O)O)c2ccccc21 (stereo unspecified)
-21%	COc1cccc(OC)c1C(=O)Nc1ccnn1C
-11%	Cc1ncc([N+](=O)[O-])n1CC(=O)NCCc1ccccc1
-8%	COc1ccc(-c2noc(CCCOc3ccc(Cl)cc3Cl)n2)cc1
1%	COc1ccc(OC)c(NC(=O)c2cnc(Nc3ccccc3OC)c3ccccc23)c1
-21%	CC(C)c1ccc(C2C(C(=O)c3ccco3)=C(O)C(=O)N2CC2CCCO2)cc1 (stereo unspecified)
-7%	COc1cc(OC)c(Nc2cc(C)nc3nc(C)nn23)cc1Cl
-9%	Cc1[nH]n(-c2ccccc2)c(=O)c1/C=N/NC(=O)C(C)C
-17%	O=C1NC2c3ccccc3CC2O1 (stereo unspecified)

# (further entries)
VDR inh	structure
-1%	O=C(O)c1sccc1NC(=O)c1c(Cl)cccc1Cl
-2%	COc1ccc(NC(=O)CN(C)S(=O)(=O)c2ccc(Br)s2)cc1
4%	C=CCC1(C#N)C(=S)NC2=C(C(=O)CC(C)(C)C2)C1c1ccc(Br)cc1 (stereo unspecified)
-3%	COc1ccc2cc(C(=O)NCc3ccco3)c(=O)oc2c1
-11%	CSc1cccc(NC(C)=O)c1
9%	CCC(C(=O)NCCc1ccc(Cl)cc1)n1ccc2cc(S(=O)(=O)N3CCCCC3)ccc21 (stereo unspecified)
-5%	Cc1nn(C)c(C)c1CNC(=O)/C=C/c1ccccc1F
-16%	CCC(=O)Nc1c2c(nn1-c1ccccc1)CSC2
2%	Cc1csc(NC(=O)c2ccco2)n1

# Not all compounds are listed. The share of hits here may be higher or lower than overall.
